MgrA DNA FP: S. aureus MgrA activity modulators, primary screen, biochemical, S. aureus Newman, fluorescence polarization. 84,000 tested, 0.13% active. inhibition, %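 (about 10 µg/mL by stock and volumes)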. MgrA-DNA binding. AID 602314, 2012;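 active = above 50% in either of two replicates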;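 also: 0% = protein plus DNA without compound and 100% = DNA alone without protein; higher means less MgrA bound to DNA so lower polarization; one replicate is shown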
Sa helicase inh: inhibitors of S. aureus replicative helicase, primary screen, biochemical, fluorescence unwinding readout; replicative DNA helicase (DnaC/DnaB), Staphylococcus aureus; purified S. aureus helicase, fluorescence unwinding assay; about half of the hits fall short of the stated cut; inhibition, %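 (tested at about 80 µM)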; 120,000 tested, 0.05% active;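 active = both duplicates at 50% or more, or one of them with a favoured structure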;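 also: 0% = mean of negative control wells and 100% = mean of positive control wells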
Starred values were filed as active, the others as inactive; / = not tested or not shown; & = joins results of further samples.

SMILES	Sa helicase inh	MgrA DNA FP
Cc1ccc(C(=O)Oc2ccc(C3Oc4ccccc4C4CC(c5ccc(C)cc5)=NN43)cc2)cc1 (stereo not drawn)	/	-0.5
COc1ccc(OC)c(Nc2nc3nonc3nc2N2CCC(C)CC2)c1	7	1.4
CCn1ncc(NC(=S)Nc2ccc3c(c2)OCO3)c1C(N)=O	22	3.7
O=C(O)CC/C(=N\Nc1ccc([N+](=O)[O-])cc1)c1ccccc1	/	1.8
N#C/C(C(=O)c1c[nH]c2ccccc12)=C1\SCC(=O)N1c1ccccc1	2	/
CCC(C)(O)c1nnn(-c2nonc2N)c1C(C)(O)CC (stereo not drawn)	3	/
OCCCc1n[nH]c(=S)n1-c1ccccc1	5	-0.9
COc1ccccc1NC(=O)C(NC(=O)c1ccccc1NC(=O)c1ccccc1)C(C)C (stereo not drawn)	-1	0.4
Cc1csc2ncnc(Sc3ccccc3N)c12	/	6.2
O=S(=O)(/N=C(\Oc1ccccc1)c1ccccc1)c1ccc(Br)cc1	9	-1.4
CC1(C)Cc2ccccc2C(c2sc3nc(-c4cccs4)cc(C(F)(F)F)c3c2N)=N1	0	1.1
COc1cccc(Cl)c1NC(=O)N1CCN(c2ccnc3cc(Cl)ccc23)CC1	-14	/
CN(C)/N=C/c1cc(Br)c(O)c(Br)c1	-5	/
Cc1[nH]c2ccccc2c1SCCNC(=O)c1cc2ccccc2oc1=O	-14	/
COC(=O)C1C(=O)NC(SC)=C(C#N)C1c1ccccc1Cl (stereo not drawn)	12	/
CCCCNC(=O)Nc1ccc(OC)c(OC)c1	4	/
CCOC(=O)c1c(C)oc2c1c(/C=N/N1CCOCC1)c(O)c1ccccc12	-10	/
CC1CCc2cc(F)ccc2N1C(=O)c1ccc2nccnc2c1 (stereo not drawn)	-5	4.7
CN(C1CCCCC1)S(=O)(=O)c1ccc2c(c1)c(=O)c(C(=O)N1CCCCC1)cn2C	-12	/
O=C(CSc1nc2ccc(N=Cc3cc(Br)ccc3O)cc2s1)Nc1ccccc1	-54	3.8
CN(C)c1nc(Cl)nc(NCCOc2ccccc2)n1	-2	5.3
O=C(Nc1ccc(Cl)c(Cl)c1)c1cnn2c1NC(c1ccc(Br)cc1)CC2C(F)(F)F (stereo not drawn)	/	0.2
CCOC(=O)c1c(O)c2scc(C)c2[nH]c1=O	/	-0.2
O=C(CNC(=O)c1ccccc1)ON1C(=O)CCC1=O	-4	/
O=S(=O)(Nc1ccccc1N1CCOCC1)c1ccc(Cl)s1	-10	/
c1ccc(CSC2=NCCCN2)cc1	/	0.2
CC(/C=C/c1ccc2c(c1)OCO2)=N\NC(=O)c1ccccn1	17	0.1
S=C(NNc1nc(N2CCCCC2)nc(N2CCCCC2)n1)NC1CCCCC1	11	0.2
COC(=O)c1cc(S(=O)(=O)CC(c2ccccc2)N2CCCC2)c(Cl)cc1N1CCCC1 (stereo not drawn)	13	/
O=C(Nc1ccccc1)C(O)C(O)C(=O)Nc1ccccc1 (stereo not drawn)	-5	-5.3
O=[N+]([O-])c1ccc(-c2csc(-c3ccncc3)n2)cc1	/	-2.0
COc1ccc(CCNC(=O)CSc2nc(C)cc(C)n2)cc1OC	10	1.2
Cc1ccc(C(=O)CSc2nnc(CSc3nc(C)cc(C)n3)n2C)cc1	13	-1.7
O=C(CN1CCOCC1)OCCCc1ccccc1	10	/
O=C(c1ccc(CS(=O)c2ccccc2)o1)N1CCN(c2ccccc2)CC1 (stereo not drawn)	-1	-3.3
COc1ccc(OCc2nc3ccccc3n2C(C)C)cc1	16	-1.1
CS(=O)(=O)NCc1ccc(C(=O)NCc2ccccc2)cc1	2	-0.9
COC(=O)CN1CCN(C(=O)c2ccc(F)cc2)c2ccccc2C1	14	/
COc1ccccc1CC(=O)N1CCCC1	12	0.7
Cn1ccnc1C(O)c1ccco1 (stereo not drawn)	15	1.1
FC(F)(F)c1ccc(Sc2cccs2)nc1	/	-2.3
CCCCNC(=S)N(CCC#N)C1CCCCC1	/	-1.4
Nc1nc(-c2ccccc2)c(CC(=O)O)s1	-33	/
C/C(=N\OCC(=O)O)c1cccs1	/	0.5
Cc1cccn2c(=O)c3cc(C(=O)NC(C)c4ccccc4)sc3nc12 (stereo not drawn)	15	-2.6
O=S(=O)(/C=C/c1ccccc1)n1cnc2ccccc21	-21	/
Cc1ccc(C(=O)N2CC(C)CC(C)C2)cc1 (stereo not drawn)	14	-2.0
O=C(O)CCN1C(=O)C2C3c4ccccc4C(c4ccccc43)C2C1=O (stereo not drawn)	1	1.1
O=C(c1ccc(Cl)cc1Cl)N1CCCC1	/	2.2
COc1cc(NC(=O)c2ccc3c(SCC(=O)O)c4c(nc3c2)CCC4)cc(OC)c1OC	14	1.9
COc1ccc(N2CCN(C(=O)c3cn(C)c(=O)c4c3c3ccccc3n4C)CC2)cc1	33	/
Cc1ccc(-n2c(SCC(=O)Nc3c(C)cccc3C)nc3ccccc3c2=O)cc1	5	0.8
O=C(O)CSc1nc2ccccc2[nH]1	/	-4.3&-0.1
CCOC(=O)CN1N=NC2C(=O)N(c3ccccc3)C(=O)C21 (stereo not drawn)	1	0.0
Fc1cccc2c(OC3CCN(Cc4ccccc4)CC3)cc(C(F)(F)F)nc12	/	-0.7
c1ccc(-c2nc(-c3cccnc3)n[nH]2)cc1	3	/
CCN=C(Nc1cc(-c2ccccc2OC)[nH]n1)SC	13	/
O=C(NCCc1ccccc1)C1CCN(c2ncnc3c2sc2cccc(F)c23)CC1	30	/
O=C(COC(=O)c1ccc(Cl)nc1)NC1CCCCC1	-6	0.1
Cc1cc(C)c2c(=O)c3ccccc3[nH]c2n1	35	/

Compound profiles, from the list above.
`Fc1cccc2c(OC3CCN(Cc4ccccc4)CC3)cc(C(F)(F)F)nc12` reads Sa helicase inh: /; MgrA DNA FP: -0.7
`CCN=C(Nc1cc(-c2ccccc2OC)[nH]n1)SC` reads Sa helicase inh: 13; MgrA DNA FP: /

Following part:
SMILES	Sa helicase inh	MgrA DNA FP
CC1CCCCN1S(=O)(=O)c1ccc(NC(=O)C2COc3ccccc3O2)cc1 (stereo not drawn)	-6	3.8
CCCC(NC1CCS(=O)(=O)C1)C(=O)O (stereo not drawn)	8	0.9
CN(Cc1ccccc1)S(=O)(=O)c1ccc2c(c1)C(=O)NCC(=O)N2	-4	/
CS(=O)(=NC(=O)NC(=O)c1ccc(Cl)cc1)c1ccc(C(F)(F)F)cn1 (stereo not drawn)	/	3.6
CC1=NN(c2ccc(Cl)c(C(=O)O)c2)C(=O)/C1=C\c1ccc(-c2ccccc2C(=O)O)o1	/	2.6
CCCc1c(C(=O)OCC)[nH]c2c1C(=O)CCC2	40	/
Cc1cc(C(=O)COC(=O)CCN2C(=O)C3CC=CCC3C2=O)c(C)n1C (stereo not drawn)	7	/
O=C(O)CCC(=O)c1ccco1	9	3.4
Cc1cc(C)nc(SCC(=O)N2CCCC2c2cccs2)n1 (stereo not drawn)	10	/
c1cc2nncn2nc1N1CCOCC1	3	-1.8
O=C(CSc1nnnn1C1CCCC1)c1ccc2c(c1)OCCO2	10	0.0
CC(CCc1ccccc1)NC(=O)Cc1noc2ccccc12 (stereo not drawn)	-6	3.4
O=C(OCc1csc(Nc2ccccc2)n1)c1cccc(S(=O)(=O)N2CCOCC2)c1	-9	/
Cc1noc(C)c1-c1nnc(-c2ccc(OC(F)(F)F)cc2)o1	-22	/
O=C(COc1ccccc1Br)Nc1ccc(C(=O)OC2CCCCC2)cc1	7	-3.3
CCN(CC)C(=O)Cn1cc(SCC(=O)N(C(C)C)C(C)C)c2ccccc21	5	0.0
Cc1ccc(S(=O)(=O)/N=C(\N)Nc2nc3ccccc3s2)cc1	8	/
O=C(CCc1nc2cccnc2n1-c1ccccc1)NCC1CCCO1 (stereo not drawn)	2	5.3
CCC(C)c1ccc(OCC(=O)Nc2cccc(-c3nc4ncccc4o3)c2C)cc1 (stereo not drawn)	10	0.6
CC(C)CN(CC(C)C)c1nnc(NC(=O)Nc2ccccc2)s1	22	/
Cn1cnnc1SCNC(=O)c1cc2ccccc2o1	-12	/
CN(CCOc1ccc(F)cc1)Cc1ccccc1	-5	/
C[C@@H](C(=O)Nc1nc2ccccc2[nH]1)N1C(=O)C2CC=CCC2C1=O (stereo partly drawn)	-7	/
CCC1=CC(=O)C=C(CC)C1=O	/	21
CCOC(=O)/C(C#N)=C1/C=C(C)c2ccccc2N1	-16	-0.2
COC(=O)CSc1n[nH]c(CNc2cccc(C)c2)n1	4	1.6
Cc1csc(NC(=O)C(Cc2ccccc2)NS(=O)(=O)c2ccc(Br)s2)n1 (stereo not drawn)	21	/
CCN(CC)c1ccc(/C=C2\N=C(c3ccccc3)OC2=O)cc1	/	0.4
COc1cccc(C2CCN(C(=O)c3cccc4ccccc34)CC2)c1	/	-0.6
O=c1/c(=C\c2ccc(N3CCCC3)c(F)c2)sc2nc3ccccc3n12	-11	/

The list goes on; the last 6 above are carried over.
SMILES	Sa helicase inh	MgrA DNA FP
CCOC(=O)/C(C#N)=C1/C=C(C)c2ccccc2N1	-16	-0.2
COC(=O)CSc1n[nH]c(CNc2cccc(C)c2)n1	4	1.6
Cc1csc(NC(=O)C(Cc2ccccc2)NS(=O)(=O)c2ccc(Br)s2)n1 (stereo not drawn)	21	/
CCN(CC)c1ccc(/C=C2\N=C(c3ccccc3)OC2=O)cc1	/	0.4
COc1cccc(C2CCN(C(=O)c3cccc4ccccc34)CC2)c1	/	-0.6
O=c1/c(=C\c2ccc(N3CCCC3)c(F)c2)sc2nc3ccccc3n12	-11	/
CSc1nnc(-c2cc(C)on2)n1C	/	-1.7
C/C(N)=C(/C#N)C(=O)CSc1nc2cc(S(=O)(=O)N3CCCCC3)ccc2o1	-2	/
CC1=C(C(=O)OCC2CCCO2)C(c2coc3ccc(Cl)cc3c2=O)C2=C(CCCC2=O)N1 (stereo not drawn)	/	2.7
COc1ccc(/C=C2\N=C(c3ccc(OC)c([N+](=O)[O-])c3)OC2=O)cc1OC(C)=O	/	-1.1
Cc1ccc(NC(=S)N2CCCCC2)cc1C	/	-0.5
O=C(CSc1ccccn1)Nc1ccccn1	6	-0.7
Cc1[nH]nc2c1CCCC2	9	/
COc1ccc(CC(=O)N2c3ccccc3CCc3ccccc32)cc1	5	0.4
CN(CC(=O)N1CCc2ccccc21)S(=O)(=O)c1ccc2c(c1)c(=O)n(C)c(=O)n2C	8	/
Cc1ccc(Cn2nc(C)ccc2=O)cc1	9	/
CCOC(=O)c1c(CC(C)C)csc1NC(=O)C#Cc1ccccc1	-13	1.4
CCC(C)N(C)C1CCN(C(=S)Nc2cccc(Cl)c2)CC1 (stereo not drawn)	6	0.6
COc1ccc(-n2nnnc2SCC(=O)N2CC(=O)Nc3ccccc32)cc1	-21	/
CC1Cc2ccccc2N1C(=O)C1CCN(S(=O)(=O)Cc2ccccc2)CC1 (stereo not drawn)	13	-0.9
CC(=O)OC1OCCOC1NC(=S)Nc1ccc(C)cc1 (stereo not drawn)	-10	1.6
COc1ccc(S(=O)(=O)N(C)CC(N)=O)cc1	27	1.2
COc1cccc(Cc2nnc(-c3ccc4c(c3)OCO4)o2)c1	/	-2.5
O=C(OCC(=O)N1CCCC1)c1c(Cl)cccc1Cl	6	0.6
C=CCNC(=O)c1c(O)c2cccc3c2n(c1=O)CCC3	0	-0.7
CCCN1CCN(C(=O)C(NC(=O)c2ccco2)C(C)C)CC1 (stereo not drawn)	16	/
C=Cc1c(S(C)(=O)=O)sc(C(=O)NC)c1C	/	-3.7
COc1ccc(-n2cc(C(=O)Nc3cc(C)ccc3OC)nn2)cc1	-23	/
COc1ccc(-n2nc3c(c2NC(=O)c2cccc(F)c2)CS(=O)C3)cc1 (stereo not drawn)	19	/
COc1ccc(CNC(=O)c2cc(S(=O)(=O)N3CCCC3)c[nH]2)cc1	4	-0.1
COc1ccc2oc(=O)c(C(=O)N(C)C)cc2c1	-14	1.4
C[C@]12C=CC(=O)C=C1CCC1C3C[C@@H](O)[C@](O)(C(=O)CO)[C@@]3(C)C[C@H](O)[C@@]12F (stereo partly drawn)	/	3.1
CNC(=O)C1=C(C)Nc2nc3ccccc3n2C1c1cccs1 (stereo not drawn)	8	4.2
CN(C(=O)c1noc2c1CCc1ccccc1-2)c1ccccc1	5	/
Cc1cccc2cc(CN(C(=O)c3ccncc3)C3CCCC3)c3nnnn3c12	18	0.1
CC1Sc2ccc(S(=O)(=O)CCC(=O)N3CCCCC3)cc2NC1=O (stereo not drawn)	-21	/
CCSc1nnc(NC(=O)C2CCCCC2C(=O)OCC(F)(F)C(F)F)s1 (stereo not drawn)	-24	/
O=C(CSc1cccc2cccnc12)NC(c1ccccc1)c1ccccc1	-7	9.4
COc1ccc(C(=O)COC(=O)CSc2nc3ccccc3s2)cc1	/	-2.1

3 compounds from above, ordered by length of the SMILES, rising.
SMILES	Sa helicase inh	MgrA DNA FP
COc1ccc(S(=O)(=O)N(C)CC(N)=O)cc1	27	1.2
CNC(=O)C1=C(C)Nc2nc3ccccc3n2C1c1cccs1 (stereo not drawn)	8	4.2
C/C(N)=C(/C#N)C(=O)CSc1nc2cc(S(=O)(=O)N3CCCCC3)ccc2o1	-2	/

A portion of the library; rates above refer to the full screens.
